Sa RN4220 lethal – S. aureus RN4220 growth inhibition; inhibition, % (no concentration beside the values); 330,000 tested, 0.33% active; OD600, 16 h;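 active means z-score of -3 or lower and OD600 up to 0.18 on both plates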;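 further: plate controls were untreated cells for no effect and reference antibiotic for full effect; stock transfer was 100 nL into about 80 µL; one replicate is shown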
ugtP null kill – compounds lethal to S. aureus RN4220 ugtP deletion mutant; growth inhibition, % (test concentration not listed); AID 1259309; OD600 growth, 16 h; some inactives read as strong as hits; 330,000 tested, 0.54% active;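 active means z-score under -3 and OD600 up to 0.15 on both plates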;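 further: plate controls were untreated wells for no effect and antibiotic for full effect; wells of about 80 µL received 100 nL stock; the first replicate is given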
BJeLR lethal – kills HRASV12-expressing BJeLR cells; BJeLR (HRASV12) viability, CellTiter-Glo ATP luminescence, 48 h; reference of the scale not given here; inhibition, % (test concentration not listed); 300,000 tested, 0.17% active;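 active means replicate mean above 50%; inconclusive means above 50% but judged a plate artefact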;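 further: 50 nL library stock added to about 25 µL; numbers are from one replicate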
PrP 5UTR inh – inhibition of PrP 5' UTR reporter expression; cell-based PrP 5' UTR mRNA reporter, plate reader; inhibition, % (test concentration not listed); 340,000 tested, 0.35% active; AID 488862;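 active means every replicate at 50% or more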;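 further: 0 = median of the neutral control wells; tested in H4 reporter cells; numbers are from one replicate; inactives centre near -14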
Mtb hypoxia inh – reduces hypoxia-regulated biosensor signal in M. tuberculosis | M. tuberculosis hypoxia-regulated fluorescent reporter, fluorescence | 300,000 tested, 0.1% active | AID 1159583 | fluorescence inhibition, % (no concentration beside the values);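 active means 35 to 45% if threefold the growth effect, above 45% if 1.5-fold the growth effect; inactive means the rest, general growth blockers included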;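 further: wells of about 50 µL received 100 nL stock; 0% = vehicle wells and 100% = reference inhibitor wells; whole bacteria with a GFP reporter of the hypoxia response; strong numbers were not always called active; many hits fall short of the cut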
Autofluor counter – compound fluorescence in toxin protease inhibitor counterscreen. compound autofluorescence counterscreen, microsphere flow cytometry; hits give high values. 360,000 tested, 3.1% active. fluorescence intensity (no concentration beside the values). AID 624483;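 active means at least 3 SD above the mean of all compounds, about 16000 in these data; inconclusive means too few beads counted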;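 further: 100 nL of 1 mM stock went into each well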
Mtb hypoxia inh growth – recorded beside Mtb hypoxia inh, whose call it bears; growth inhibition, %; measured here: M. tuberculosis growth (absorbance);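 0% = vehicle and 100% = reference antibiotic; read after six days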
The depositor's hits bear a star; ? = inconclusive; . = no result given.

The first 2 compounds, to show the layout:
SMILES | Sa RN4220 lethal | ugtP null kill | BJeLR lethal | PrP 5UTR inh | Mtb hypoxia inh | Mtb hypoxia inh growth | Autofluor counter
CNc1ccc(Br)cc(C(=O)/C=C/c2ccc(OC)cc2)c1=O | 2.7 | 0 | -19 | -21 | 4 | 11 | 2252
CC(=O)NCCN1C(=O)S/C(=C\c2cccs2)C1=O | 3.4 | -2 | 4 | -48 | -5 | 5 | 4357

Main list, previewed entries included:
SMILES | Sa RN4220 lethal | ugtP null kill | BJeLR lethal | PrP 5UTR inh | Mtb hypoxia inh | Mtb hypoxia inh growth | Autofluor counter
CNc1ccc(Br)cc(C(=O)/C=C/c2ccc(OC)cc2)c1=O | 2.7 | 0 | -19 | -21 | 4 | 11 | 2252
CC(=O)NCCN1C(=O)S/C(=C\c2cccs2)C1=O | 3.4 | -2 | 4 | -48 | -5 | 5 | 4357
CCN(CC)C(=O)CN(c1cc(Cl)ccc1OC)S(C)(=O)=O | -3.0 | 0 | -8 | -17 | -6 | -17 | 7952
N/C(=N\OC(=O)c1ccc(Cl)cc1Cl)c1ccccn1 | 5.3 | 4 | 13 | 79* | 12 | 4 | 2638
Cc1nn(Cc2ccccc2)c(C)c1C(=O)OCC(=O)NCc1ccco1 | 1.7 | 4 | -12 | -6 | 6 | 0 | 3340
CN(C)c1ccc(C(=O)Nc2nnc(C3=COCCO3)o2)cc1 | 0.7 | 5 | 8 | -17 | 7 | 10 | 3167
OCCC1CN(Cc2cc3ccccc3o2)CCN1Cc1ccc(F)cc1 (configuration not stated) | 0.9 | 8 | -2 | -16 | 1 | 13 | 4402
C=CCn1c(O)c(C(C)=NC2CC2)c(=O)[nH]c1=O | 0.5 | 2 | -2 | -16 | 14 | 8 | 3234
N#C/C(=C\c1ccc(-c2ccc(S(=O)(=O)N3CCOCC3)cc2)o1)C(=O)NC1CC1 | 1.3 | -4 | . | 3 | 5 | 1 | 2451
Cc1cccc(-n2c(=S)[nH]c3ccccc3c2=O)n1 | 14 | 8 | 6 | -20 | -4 | 8 | 4432
O=c1c2ccc(Cl)cc2[nH]c(=S)n1CCC1=CCCCC1 | 0.0 | 55 | -2 | -21 | 5 | 6 | 2546
Cc1nn(Cc2ccc(Cl)cc2Cl)c(Cl)c1C=NNC(=O)CNc1cccc(C(F)(F)F)c1 | -12 | -19 | . | . | -4 | 0 | .
COc1cccc(CNC(=O)c2cc(C)nc3ccccc23)c1 | 3.7 | -3 | -5 | -4 | 0 | 7 | 4119
Cc1c(C(=O)N2CC(C)OC(C)C2)[nH]c2ccc(Br)cc12 (configuration not stated) | 5.8 | 1 | -1 | -25 | 15 | 8 | 3964
CSc1ccc(/C=C(\C#N)C(=O)NC2CCCCC2)cc1 | 1.9 | -7 | 13 | 0 | 4 | 2 | 1928
O=C(CNc1cc(S(=O)(=O)N2CCOCC2)ccc1N1CCOCC1)Nc1cccc(C(F)(F)F)c1 | 3.0 | 3 | . | -30 | 3 | 3 | 2944
CN=C(C)/C(C(=O)OC)=C(/O)c1ccccc1F | 0.0 | 9 | 12 | -20 | 3 | 0 | ?
COc1ccccc1NC(=S)N1CCN(c2ccccn2)CC1 | 4.4 | 7 | 13 | -14 | -2 | 0 | 2555
CCN1CCN(C(=O)c2nn(-c3ccc(C)cc3)c(=O)c3c2c2ccccc2n3C)CC1 | 1.1 | 8 | 10 | -13 | . | . | 3796
O=C1CCC/C(=N\NC(=O)c2ccc(NS(=O)(=O)c3ccc(Br)cc3)cc2)C1 | . | . | -21 | -25 | . | . | 2515
COc1cccc(C=NNc2nccnc2Cl)c1O | 11 | 6 | . | . | 2 | -1 | .
COc1ccc(C(=O)Oc2cc(/C=N/NC(N)=S)ccc2OC)cc1 | . | . | -6 | -33 | . | . | 9098
Cc1nc2cc(NCc3ccc(Cl)cc3)ccc2n1C | 3.9 | 4 | -10 | -27 | 11 | 24 | 4421
O=c1c2cc(NC(=S)N3CCCCCC3)ccc2nc2n1CCCCC2 | 12 | 3 | 2 | -13 | 6 | 4 | 4168
COc1ccc(OC)c(NC(=O)c2sc3nc(Cc4ccccc4)cc(C(F)(F)F)c3c2N)c1 | 7.2 | 10 | -8 | -32 | 7 | -3 | 20176*
Cc1ccc(C(=O)NC(=S)NCCCN2CCOCC2)cc1 | 6.0 | -3 | -5 | -16 | 5 | 2 | 2548
CC1(c2ccc3c(c2)OCCO3)NC(=O)N(CC(=O)Nc2ccccc2F)C1=O (configuration not stated) | 2.1 | 3 | . | -14 | -11 | -1 | ?
CCOC(=O)n1c(SCC(N)=O)nc2ccccc21 | 0.9 | 3 | -4 | -14 | . | . | 3304
Cc1cc(Cl)ccc1NC(=O)C1CCCN1C(=O)c1cccs1 (configuration not stated) | 1.5 | 3 | -6 | -10 | 8 | 5 | 2537
CC(C)c1ccc(/C=C2\SC(=S)N(CCC(=O)NCCCn3ccnc3)C2=O)cc1 | 3.4 | 7 | -1 | 20 | 10 | -1 | 4348
O=C(Nc1ncc(Cc2ccc(SC(F)F)cc2)s1)c1ccccc1 | 0.2 | -13 | -7 | -33 | 3 | 3 | 21972*
Cc1cccc(OCC(=O)N2CCCc3ccccc32)c1 | 7.0 | 9 | . | -22 | -8 | -11 | 3993
Cc1cc(C(=O)Nc2ccccc2C(=O)O)ccc1NC(=O)COc1cccc([N+](=O)[O-])c1 | 8.4 | 5 | 5 | -31 | 10 | 6 | 4570
CCNC1CN(CCCOC)S(=O)(=O)c2sc(S(N)(=O)=O)cc21 (configuration not stated) | 7.0 | 4 | . | . | 6 | 3 | .
S=c1[nH]nc(-c2ccc3c(c2)OCO3)n1-c1ccccc1 | 4.7 | 9 | 9 | -15 | 3 | 2 | 7064
COc1ccccc1C(=O)Nn1c(-c2cccs2)nc2ccccc2c1=O | 0.4 | -15 | -6 | 5 | -2 | 3 | 1996
Cc1ccc2cc(C)c(NCCO)nc2c1 | 4.0 | 1 | -2 | 8 | . | . | 4768
CCOc1ccc(NCc2cccn2-c2nnc(N3CCC(C(=O)NCCCN4CCCCC4CC)CC3)s2)cc1 (configuration not stated) | 3.1 | 5 | -2 | -26 | 4 | 4 | 5289
Cc1ccnc(NS(=O)(=O)c2cccc3nsnc23)c1 | -0.4 | 5 | -6 | 12 | . | . | 3972
COc1ccc(C(C(=O)NC(C)(C)C)N(CCC(C)C)C(=O)CCC(=O)Nc2cc(C)on2)cc1 (configuration not stated) | -5.0 | -4 | 3 | -10 | 4 | 4 | 3975

Copied from the list:
Entry of `CSc1ccc(/C=C(\C#N)C(=O)NC2CCCCC2)cc1` in PrP 5UTR inh: 0
Entry of `C=CCn1c(O)c(C(C)=NC2CC2)c(=O)[nH]c1=O` in Sa RN4220 lethal: 0.5
Entry of `COc1cccc(C=NNc2nccnc2Cl)c1O` in Mtb hypoxia inh: 2
Entry of `CC1(c2ccc3c(c2)OCCO3)NC(=O)N(CC(=O)Nc2ccccc2F)C1=O` (configuration not stated) in Sa RN4220 lethal: 2.1
Entry of `COc1cccc(CNC(=O)c2cc(C)nc3ccccc23)c1` in Autofluor counter: 4119
Entry of `O=C1CCC/C(=N\NC(=O)c2ccc(NS(=O)(=O)c3ccc(Br)cc3)cc2)C1` in BJeLR lethal: -21
Entry of `O=c1c2cc(NC(=S)N3CCCCCC3)ccc2nc2n1CCCCC2` in Sa RN4220 lethal: 12

The list continues:
SMILES | Sa RN4220 lethal | ugtP null kill | BJeLR lethal | PrP 5UTR inh | Mtb hypoxia inh | Mtb hypoxia inh growth | Autofluor counter
O=C(O)CCC(=O)Nc1nc2ccc([N+](=O)[O-])cc2s1 | 1.7 | 10 | 10 | -17 | 4 | 6 | 4488
CCCCN(C)CCNC(=O)CSCc1ccc(C)cc1 | 5.7 | 11 | -2 | -28 | 18 | 14 | 4218
Cc1ccc(O)c(C)c1 | 4.4 | 4 | . | -18 | 13 | 12 | 4205
CCOC(=O)/C(=N\Nc1ccccc1[N+](=O)[O-])c1csc(Nc2ccccc2)n1 | . | . | 9 | -21 | . | . | 3538
CSCCC1NC(=O)N(CC(=O)Nc2cccc3ccccc23)C1=O (configuration not stated) | -0.5 | 5 | -1 | -7 | . | . | 4727
COc1cccc(C(=O)NCCC(=O)NCc2cc(=O)n(C)c(=O)n2C)c1 | 1.5 | 3 | -1 | -19 | 11 | 8 | 5344
O=C1NC(N2CCOCC2)=N/C1=C/c1ccc2c(c1)OCO2 | -0.7 | 3 | 35 | -31 | -20 | 2 | 4442
O=S(=O)(c1cccc(Cl)c1Cl)N1CCCCC1 | 7.6 | -1 | 6 | -19 | 11 | 11 | 9633
Cc1cc(-c2nc3cccnc3s2)ccc1NS(=O)(=O)c1ccc2c(c1)OCCO2 | 15 | 5 | -11 | -4 | 7 | -1 | 4467
CC1CCN(C(=O)c2[nH]cnc2C(=O)NC(Cc2ccccc2)C(=O)OC(C)(C)C)CC1 (configuration not stated) | 4.8 | 2 | . | . | 9 | 0 | .
O=C1c2ccccc2C(Nc2ccc(S(=O)(=O)N3CCOCC3)cc2)N1c1cccnc1 (configuration not stated) | -8.5 | -3 | 1 | -17 | 4 | 9 | 5631
c1nnc(-c2ccc3c(c2)OCO3)o1 | -3.9 | 5 | -5 | -11 | 11 | 8 | 4144
COc1ccc(/C=C2/N=C(SCC(=O)Nc3cc(C)on3)N(c3ccccc3)C2=O)cc1 | 6.6 | -3 | . | -23 | 7 | 1 | 8620
COc1cc(NC(=O)CN(c2ccc(C)cc2)S(=O)(=O)c2c(C)nn(C)c2C)cc(OC)c1 | 25 | -8 | -4 | -9 | -6 | 1 | 5593
CCCCSc1nnc([C@H](C)NC(=O)OC(C)(C)C)o1 | -0.7 | 2 | . | -26 | 6 | 8 | 11064
Cc1c(NC(=O)C(C)OC(=O)c2ccc(Cl)nc2)c(=O)n(-c2ccccc2)n1C (configuration not stated) | 2.8 | 3 | -1 | -10 | 4 | 18 | 2541
Cc1cccc(C)c1-n1nnnc1C1(Nc2ccccc2)CCCCC1 | 14 | 9 | 1 | -9 | . | . | 2129
CN(C)C(=O)Oc1ccc2c(c1)O/C(=C\c1ccc(Cl)cc1)C2=O | 0.2 | 1 | 0 | -39 | 13 | 2 | 3811
O=C(CCc1nnc2ccc(N3CCC4(CC3)OCCO4)nn12)NCc1ccc(F)cc1 | 0.4 | 1 | -18 | -11 | 11 | 3 | 5311
CCCCNC(=O)N1CCN(c2ncccn2)CC1 | 4.8 | 0 | 1 | -12 | 3 | -1 | 2613
Fc1ccc(C=Nn2c(-c3cccs3)n[nH]c2=S)cc1 | 16 | -11 | . | . | 3 | -14 | .
O=C1CS/C(=C\S(=O)(=O)c2ccc(Cl)cc2)N1 | 4.3 | 0 | 3 | -7 | . | . | 4674
COCc1nc2c([nH]1)c(=O)n(C)c(=O)n2CC(C)C | 7.6 | 2 | . | -21 | 6 | -1 | 4470
COCCn1c(=NC(=O)c2ccc(S(=O)(=O)N3CCCc4ccccc43)cc2)sc2cc(S(C)(=O)=O)ccc21 | 13 | -9 | 12 | -37 | -33 | 30 | 2468
O=c1c2c(-c3ccccc3)csc2ncn1/N=C/c1cccc([N+](=O)[O-])c1O | . | . | 8 | -43 | . | . | 3389
O=C(/N=C1\NC(=O)C(F)(C(F)(F)F)S1)NC1CCCCC1 (configuration not stated) | 16 | 2 | 5 | -24 | . | . | 2203
O=c1c2cc(NC(=S)NC3CCCC3)ccc2nc2n1CCCCC2 | 11 | 10 | -1 | -34 | -10 | -2 | 3256
COC(=O)c1c(NC(=O)CSc2nnnn2-c2ccccc2)sc2c1CCC(C)C2 (configuration not stated) | -6.9 | 2 | 1 | -17 | 7 | -11 | 12350
O=c1[nH]c(O)c(C=Nc2ccccc2Sc2ccccc2)c(=O)[nH]1 | -0.4 | 4 | -2 | 0 | 5 | -9 | 5559
O=C(O)C1=C[C@H](C2CC2)C[C@H](OCCCCO)O1 | . | . | 1 | -1 | . | . | 3865
CNc1nc2ccccc2n1CC(=O)c1ccccc1 | 9.3 | 0 | 6 | -55 | 17 | 7 | 4331
CCC1(C)Cc2c(sc3nc4n(c(=O)c23)CCCS4)CO1 (configuration not stated) | -1.1 | 5 | -3 | -21 | 3 | 9 | 2381
CCOc1ccc2nc(N3C(=O)/C(=C/c4ccccc4)NC3=S)sc2c1 | 8.0 | 94* | -4 | -39 | 4 | 3 | 2447
COc1cc([N+](=O)[O-])cc(/C=N/NC(=O)C(C)Nc2ccccc2C)c1O (configuration not stated) | . | . | -18 | -11 | . | . | 2594
CN1c2ccccc2N(C)C1(C)c1ccccc1 | -4.4 | -6 | 27 | -9 | 15 | 7 | 1765
C=CCNC(=O)COC(=O)c1cccnc1Nc1ccccc1F | 3.2 | 10 | 13 | -16 | 3 | 1 | 3203
O=C(Cc1ccc(Cl)cc1)NCCc1c[nH]c2ccccc12 | . | . | -20 | -27 | . | . | 3919
